Polio RdRp inh = poliovirus RNA polymerase inhibition; P03300; poliovirus polymerase elongation, fluorescence polarization; stronger effect = lower value; % elongation, % (compound at 16.7 µg/mL); 0.66% of 150,000 active; in the data active = % elongation below about 90%; also: some results filed as inactive read as strong as hits
MenB inh = inhibitors of Mycobacterium tuberculosis MenB enzyme; inhibition, %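 (about 12 µg/mL by stock and volumes)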; 0.43% of 100,000 active; MenB enzyme assay, absorbance read-out; some hits fall short of the stated cut; P9WNP5;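 active = mean of two replicates above 30%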;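 also: 0% = no compound and 100% = wells with inactive enzyme; the first replicate is given; strong numbers were not always called active; inactives centre near -10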
Target sequence (P9WNP5 whole entry, looked up): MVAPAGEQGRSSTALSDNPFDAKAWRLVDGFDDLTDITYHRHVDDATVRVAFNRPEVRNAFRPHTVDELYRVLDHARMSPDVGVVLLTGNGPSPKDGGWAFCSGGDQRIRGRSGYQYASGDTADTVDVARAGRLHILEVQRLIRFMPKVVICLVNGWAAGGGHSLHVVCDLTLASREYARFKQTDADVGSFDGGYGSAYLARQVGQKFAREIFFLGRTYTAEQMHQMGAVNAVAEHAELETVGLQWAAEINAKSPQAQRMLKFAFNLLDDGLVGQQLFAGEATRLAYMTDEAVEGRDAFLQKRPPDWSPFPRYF
MbtI inh = MbtI salicylate synthase inhibition. P9WFX0. purified MbtI enzyme, fluorescence intensity read-out. inhibition, %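 (about 17 µg/mL by stock and volumes)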. 0.89% of 100,000 active;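 active = above 50% in both replicates, above 80% if mildly self-fluorescent; inactive = the rest, strongly fluorescent compounds included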;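 also: 0% = mean of negative and 100% = mean of positive controls; one replicate is shown; some compounds called inactive have numbers as strong as hits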
Target sequence (P9WFX0 whole entry, looked up): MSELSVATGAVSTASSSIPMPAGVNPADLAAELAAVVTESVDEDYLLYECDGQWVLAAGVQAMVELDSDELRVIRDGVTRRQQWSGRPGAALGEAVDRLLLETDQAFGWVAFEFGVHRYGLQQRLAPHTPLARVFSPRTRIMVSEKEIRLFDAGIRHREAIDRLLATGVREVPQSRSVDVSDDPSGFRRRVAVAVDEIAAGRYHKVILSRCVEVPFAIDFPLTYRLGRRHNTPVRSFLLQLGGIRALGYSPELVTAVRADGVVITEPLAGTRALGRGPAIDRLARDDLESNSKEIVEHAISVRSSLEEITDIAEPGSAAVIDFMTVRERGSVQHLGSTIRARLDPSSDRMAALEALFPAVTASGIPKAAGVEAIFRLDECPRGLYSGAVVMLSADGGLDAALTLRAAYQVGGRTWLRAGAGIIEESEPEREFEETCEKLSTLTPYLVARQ
Polio RdRp inh intensity = second read-out of Polio RdRp inh, no call of its own (marks repeat the call); % elongation; measured here: total intensity read-out; formula for this scale not given here;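 total fluorescence in place of polarization; lower means less elongation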
Starred values were filed as active, the others as inactive; i = inactive; . = not tested or not shown.

SMILES	Polio RdRp inh	Polio RdRp inh intensity	MenB inh	MbtI inh
COc1ccc2c(c1OC)C(=O)OC2Nc1ncn[nH]1 (configuration not stated)	.	.	-9.5	0.4
Nc1ccc(-c2nc3cc(N)ccc3o2)cc1	100.0	103.0	-16.1	114.4
CCCN(C(=O)c1cc2cc3ccc(C)cc3nc2o1)c1cccc(C)c1	103.0	107.0	-24.8	1.6
C=CCn1c(C)cc(C(=O)CSc2nnc(-c3cccs3)o2)c1C	98.0	106.0	-17.8	4.7
Cc1nn(-c2ccccc2)nc1C(=O)c1c(C(C)(C)C)[nH]n(-c2ccccc2)c1=O	98.0	97.0	-6.1	-5.2
CCC(C)NC(=O)c1cc(-c2ccccc2)n[nH]1 (configuration not stated)	101.0	100.0	-7.4	-9.8
COc1ccc2nc(SC(=O)c3ccccc3)nc(C)c2c1	101.0	105.0	-66.4	13.2
O=C(CSc1cccc[n+]1[O-])NCc1ccc(Cl)cc1	104.0	107.0	.	4.8
COc1ccccc1Nc1c2c(nc3ccc(NC(=O)Cc4cccs4)cc13)CCCC2	101.0	105.0	-13.5	-5.6
N=C1SC2CS(=O)(=O)CC2N1/N=C/c1ccccc1 (configuration not stated)	109.0	109.0	6.4	8.9
O=C(Cc1c[nH]c2ccccc12)NC1(C(=O)NC2CCCCC2)CCCCC1	101.0	104.0	7.5	-3.3
CC(=O)OC1CCC2(C)C(=CCC3C4CCC(=O)C4(C)CCC32)C1 (configuration not stated)	101.0	112.0	-16.7	.
Cc1cc(C)n(Cc2ccccc2)n1	101.0	105.0	.	-4.8
CC1=C/C(=N/NC(=O)Cn2cnc3ccccc32)CC(C)(C)C1	109.0	126.0	-1.7	1.1
COC(=O)c1cn(C)c2ccc(S(=O)(=O)N3CCOCC3)cc2c1=O	101.0	100.0	-5.4	-9.3
CCOc1cc(S(=O)(=O)NCc2ccc(OC)cc2)c(OCC)cc1-n1cnnn1	102.0	100.0	22.7	47.7
COc1ccccc1NC(=O)Cn1cccc1	103.0	107.0	3.5	2.9
C=CCNc1nnc(SCC(=O)N2N=CCC2c2ccccc2)s1 (configuration not stated)	105.0	102.0	-62.2	-2.2
CCCCN(C(=S)Nc1cccc(C)c1)C1CCN(C(C)=O)CC1	103.0	109.0	-2.9	-11.2
CN(Cc1ccccc1)Cn1[nH]c(-c2cccs2)nc1=S	101.0	98.0	-6.7	92.7
COC(=O)COc1coc(CN2CCN(c3cccc(Cl)c3)CC2)cc1=O	103.0	110.0	-23.4	9.5
CCOc1ccc(C(=O)Nc2ccc(S(=O)(=O)N(C)C)cc2)cc1OCC	100.0	100.0	5.1	-2.0
N#Cc1cc2c(nc1SCC(=O)Nc1ccc(Cl)cc1)C1CCN2CC1	102.0	102.0	-31.2	-23.9
COc1cc(/C=N/NC(=O)Cn2ncn(-c3ccccc3)c2=O)ccc1OC(=O)CC1SC(=O)NC1=O (configuration not stated)	102.0	106.0	-1.4	-14.2
O=C(N/C=C/n1cnc2cc(C(F)(F)F)ccc21)c1ccccc1	105.0	105.0	.	2.6
N=C(N)SCc1ccc(Cl)cc1Cl	95.0	99.0	-6.7	.
CC(C)NC(=O)C1CCCN(c2nc3cccnc3s2)C1 (configuration not stated)	101.0	101.0	-16.3	-46.8
COc1ccc(/C=C2\SC(=O)N(c3c(C)n(C)n(-c4ccccc4)c3=O)C2=O)cc1OC	81.0*	86.0*	-31.7	86.6*
CCc1cccc(NC(=S)N(Cc2c[nH]c3ccccc23)C2CCCC2)c1	98.0	97.0	-55.6	-11.9
Cc1cc(C)cc(C(=O)Nc2ccc3[nH]c(=O)[nH]c3c2)c1	102.0	102.0	-29.4	-82.2
COc1ccc(C2c3sc(=O)[nH]c3SC3C(=O)N(c4ccccc4)C(=O)C32)cc1 (configuration not stated)	100.0	103.0	-0.7	34.3
CCN1CCN(C/C=C/c2ccccc2)CC1	99.0	103.0	-9.8	-0.7
Cc1cc(C)c2c(CC(=O)Nc3c(C(=O)Nc4cccc(Cl)c4)oc4ccccc34)coc2c1	102.0	100.0	6.1	3.6
COc1ccc(S(=O)(=O)N(C)Cc2ccc(OC)cc2OC)cc1	107.0	111.0	-26.0	-30.1
Cn1c(CSCC(=O)Nc2ccccc2)nnc1SCC(=O)c1ccccc1	97.0	104.0	-9.0	3.4
O=C(Nc1ccccc1C(F)(F)F)c1ccco1	100.0	104.0	-20.7	-9.1
CCN(Cc1ccccc1)C(=O)CSc1nncn2c1cc1occc12	103.0	106.0	4.3	12.6
Cc1ccc(OCc2nnc(SCc3cccc(C#N)c3)n2N)cc1C	103.0	99.0	-15.7	-4.2
CCNC(=O)CC1C(=O)N(c2ccccc2)C(=O)N1CCOC (configuration not stated)	101.0	106.0	-15.5	3.8
COC(=O)c1cccc(Oc2ncnc3c2oc2ccccc23)c1	102.0	108.0	-33.1	10.7
O=C1CC2(CCCC2)C(=O)N1c1cc(C(F)(F)F)cc(C(F)(F)F)c1	103.0	106.0	-8.2	-2.2
CC(=O)Nc1ccc(C(=O)COc2ccccc2O)cc1	101.0	103.0	.	0.2
Cc1cccc(CCNS(=O)(=O)c2ccc3c(c2)CCN3C(=O)C2CCC2)c1	104.0	107.0	-34.2	-8.2
CSc1ccc(/C=C/C(=O)Nc2ccc(-n3cnnn3)cc2)cc1	108.0	98.0	8.3	-17.8
CCOc1ccc(CC(=O)NCC(c2ccc(OC)cc2)N2CCOCC2)cc1 (configuration not stated)	109.0	121.0	-8.3	4.0
CC1(C)CC(=O)C=C(NCC2NCCc3ccccc32)C1 (configuration not stated)	101.0	102.0	-5.3	.
COC(=O)c1ccc(CSc2nc3ccc(C)cc3[nH]2)o1	104.0	113.0	2.9	-0.5
O=C(Cn1nc(-c2ccc(F)cc2)oc1=O)OCc1nnc(-c2cc3c(s2)CCCC3)o1	100.0	100.0	-19.6	9.2
COC(=O)CCC(=O)Nc1ccc(Oc2ccccc2)cc1	103.0	101.0	-68.5	-6.5
CNc1ccc(-c2c(C#N)c(C#N)c(N)n2-c2ccc(C)cc2)cc1	103.0	108.0	.	-189.7
CC(Sc1nnc(N)s1)C(=O)Nc1ccc(N2CCOCC2)cc1 (configuration not stated)	103.0	110.0	-9.0	0.2
CCS(=O)(=O)c1ccc2oc(SCC(=O)N3CC(C)OC(C)C3)nc2c1 (configuration not stated)	106.0	109.0	20.1	-10.2
CC(C)NC(=O)c1ccccc1N(Cc1ccccc1)S(C)(=O)=O	102.0	105.0	-8.1	0.8
CCN1C(=O)/C(=C2/Sc3ccc(OC)cc3N2CC)SC1=Nc1ccc2c(c1)OCCO2	99.0	114.0	14.9	-0.1
N#CC1(NC(=O)CN2CCCCC2c2nc3ccccc3s2)CCCC1 (configuration not stated)	101.0	110.0	-19.5	-5.3
Cc1cc(=O)[nH]c2[nH]n(-c3ccccc3)c(=O)c12	103.0	107.0	-2.5	.
Cc1ccc(S(=O)(=O)Cn2nnnc2CN2CCC(Cc3ccccc3)CC2)cc1	101.0	103.0	-0.5	-4.0
CCOC(=O)c1c(/C=C/N(C)C)oc2ccc(O)cc12	83.0	137.0	-40.6	-13.9
CCN1CCN(Cc2ccccc2Cl)CC1	98.0	102.0	-54.5	-7.8
CNc1ccccc1C(=O)OCC(=O)c1cccs1	105.0	100.0	-1.4	-120.1
Next part
SMILES	Polio RdRp inh	Polio RdRp inh intensity	MenB inh	MbtI inh
O=C(O)/C=C/C(=O)Nc1ccc(C(F)(F)F)cc1	101.0	99.0	12.3	15.9
N#CCOC(=O)/C(=C\c1cccs1)c1cccs1	100.0	105.0	-22.1	7.7
CCCn1c(NC(=O)Cc2coc3cc(OC)ccc23)nc2ccccc21	104.0	102.0	4.7	6.3
CCOC(=O)Cc1n[nH]c(=S)n1C1CCCCC1	103.0	96.0	-28.7	-9.1
CC(=O)Nc1ccc(S(=O)(=O)N(C)c2ccc(OCC(=O)OCC(=O)N3CCCCC3)cc2)cc1	102.0	99.0	2.7	-0.9
OCC1OC(Oc2cccc(O)c2CCCc2ccc(O)cc2)C(O)C(O)C1O (configuration not stated)	102.0	107.0	-9.2	.
FC(F)(F)c1cccc(NCCNc2nccc(C(F)(F)F)n2)n1	104.0	98.0	-14.4	-3.9
CC1CCCC(C)N1CCNC(=O)C1C2C=CC3(CN(Cc4ccccc4Cl)C(=O)C13)O2 (configuration not stated)	101.0	104.0	13.0	7.4
CC1CC(C)CN(CC(C)(C)NS(=O)(=O)c2ccccc2)C1 (configuration not stated)	103.0	108.0	.	-8.1
O=C(O)CC1SC2=NCCN2C1=O (configuration not stated)	102.0	104.0	-30.2	-9.6
O=C(/C=C/c1ccco1)CC1(O)C(=O)N(Cc2ccccc2Cl)c2ccccc21 (configuration not stated)	101.0	104.0	-15.2	27.5
COc1cccc(NC(=O)C(C)N(c2ccccc2)S(C)(=O)=O)c1 (configuration not stated)	103.0	101.0	-22.4	-6.4

Single values from the entries so far:
In Polio RdRp inh intensity, N#CC1(NC(=O)CN2CCCCC2c2nc3ccccc3s2)CCCC1 (configuration not stated) reads 110.0
In MenB inh, Nc1ccc(-c2nc3cc(N)ccc3o2)cc1 reads -16.1
In Polio RdRp inh intensity, COc1ccccc1NC(=O)Cn1cccc1 reads 107.0

Additional compounds
SMILES	Polio RdRp inh	Polio RdRp inh intensity	MenB inh	MbtI inh
CC(C)(C)NC(=O)c1ccc2c3c(onc13)-c1ccccc1C2=O	102.0	97.0	9.8	7.0
CC(=O)Nc1ccc(-n2c(N)c(C(=O)NC3CCCC3)c3nc4ccccc4nc32)cc1	.	.	-0.8	-83.5
Cc1ccccc1-c1nc(CN2CCCC(C(=O)O)C2)c(C)o1 (configuration not stated)	102.0	102.0	-6.9	16.6
CC(=O)Nc1nnc(CC(C)(C)C)s1	99.0	100.0	1.0	50.5
CC1Cn2c(C(=O)Nc3ccc(Cl)cc3)cc3cccc(c32)S1 (configuration not stated)	106.0	99.0	-37.0	i
COc1ccc(C2C3=C(CC(C)(C)CC3=O)Nc3cc(OC)c(OC)cc32)cc1 (configuration not stated)	103.0	107.0	-9.4	.
COCC(=O)Nc1ccccc1C(C)C	98.0	100.0	1.3	-6.6
Cc1[nH]c(C)c2c(=O)n(C)ncc12	103.0	101.0	-8.8	5.7
O=C(NNC(=O)c1ccc(Br)cc1)NC1CCCCC1	101.0	106.0	-17.3	-10.4
Cc1ccc2c(CC(=O)OC3CCOC3=O)coc2c1 (configuration not stated)	103.0	105.0	1.4	-0.4
CCOC(=O)C1CCN(C(=O)c2cc(-c3ccc(C)cc3)nc3ccccc23)CC1	101.0	102.0	.	-0.6
CC(C)Cn1cc(NC(=O)N2CCCc3ccccc32)c2ccccc2c1=O	98.0	102.0	2.3	-21.9
CS(=O)(=O)CS(=O)(=O)Nc1ccc2c(c1)OCCO2	103.0	109.0	-1.0	-0.9
Cc1cn(Cc2ccccc2)c(=O)[nH]c1=O	101.0	100.0	7.8	-4.9
O=C(OCC(O)CN1CCN(c2ccccc2)CC1)c1ccccc1 (configuration not stated)	.	.	-23.8	7.0
CC(=O)N1c2ccccc2C(=O)C1N(C)Cc1ccccc1 (configuration not stated)	98.0	103.0	-0.6	179.7
Cc1cc(C(=O)CSc2nnc3n2CCCCC3)c(C)n1C1CCS(=O)(=O)C1 (configuration not stated)	100.0	116.0	-2.6	-0.2

Part of the list above in order of molar mass, ascending.
SMILES	Polio RdRp inh	Polio RdRp inh intensity	MenB inh	MbtI inh
CCN1CCN(Cc2ccccc2Cl)CC1	98.0	102.0	-54.5	-7.8
Cc1cc(=O)[nH]c2[nH]n(-c3ccccc3)c(=O)c12	103.0	107.0	-2.5	.
CCC(C)NC(=O)c1cc(-c2ccccc2)n[nH]1 (configuration not stated)	101.0	100.0	-7.4	-9.8
N#CCOC(=O)/C(=C\c1cccs1)c1cccs1	100.0	105.0	-22.1	7.7
COC(=O)CCC(=O)Nc1ccc(Oc2ccccc2)cc1	103.0	101.0	-68.5	-6.5
CC1=C/C(=N/NC(=O)Cn2cnc3ccccc32)CC(C)(C)C1	109.0	126.0	-1.7	1.1
Cc1ccccc1-c1nc(CN2CCCC(C(=O)O)C2)c(C)o1 (configuration not stated)	102.0	102.0	-6.9	16.6
CN(Cc1ccccc1)Cn1[nH]c(-c2cccs2)nc1=S	101.0	98.0	-6.7	92.7
CC1Cn2c(C(=O)Nc3ccc(Cl)cc3)cc3cccc(c32)S1 (configuration not stated)	106.0	99.0	-37.0	i
COC(=O)c1cn(C)c2ccc(S(=O)(=O)N3CCOCC3)cc2c1=O	101.0	100.0	-5.4	-9.3
O=C(Cc1c[nH]c2ccccc12)NC1(C(=O)NC2CCCCC2)CCCCC1	101.0	104.0	7.5	-3.3
N#Cc1cc2c(nc1SCC(=O)Nc1ccc(Cl)cc1)C1CCN2CC1	102.0	102.0	-31.2	-23.9
COc1ccc(C2C3=C(CC(C)(C)CC3=O)Nc3cc(OC)c(OC)cc32)cc1 (configuration not stated)	103.0	107.0	-9.4	.
Cc1cccc(CCNS(=O)(=O)c2ccc3c(c2)CCN3C(=O)C2CCC2)c1	104.0	107.0	-34.2	-8.2
O=C(/C=C/c1ccco1)CC1(O)C(=O)N(Cc2ccccc2Cl)c2ccccc21 (configuration not stated)	101.0	104.0	-15.2	27.5
COc1cc(/C=N/NC(=O)Cn2ncn(-c3ccccc3)c2=O)ccc1OC(=O)CC1SC(=O)NC1=O (configuration not stated)	102.0	106.0	-1.4	-14.2
